Mtb hypoxia rep – Mtb hypoxia fluorescent reporter inhibition; M. tuberculosis hypoxia-regulated fluorescent reporter, fluorescence; fluorescence inhibition, % (no concentration beside the values); actives 0.1% (n = 300,000);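 active means 35 to 45% if threefold the growth effect, above 45% if 1.5-fold the growth effect; inactive means the rest, general growth blockers included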;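 further: wells of about 50 µL received 100 nL stock; 0% = vehicle wells and 100% = reference inhibitor wells; whole bacteria with a GFP reporter of the hypoxia response; strong numbers were not always called active; many hits fall short of the cut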
RN4220 kill – S. aureus RN4220 growth inhibition. OD600, 16 h. inhibition, % (concentration not given with the values). actives 0.33% (n = 330,000). AID 1259311;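 active means z-score of -3 or lower and OD600 up to 0.18 on both plates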;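 further: plate controls were untreated cells for no effect and reference antibiotic for full effect; stock transfer was 100 nL into about 80 µL; one replicate is shown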
PrP 5UTR inh – inhibition of PrP 5' UTR reporter expression. cell-based PrP 5' UTR mRNA reporter, plate reader. inhibition, % (no concentration beside the values). actives 0.35% (n = 340,000);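 active means every replicate at 50% or more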;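 further: 0 = median of the neutral control wells; tested in H4 reporter cells; numbers are from one replicate; inactives centre near -14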
Sa ugtP lethal – compounds lethal to S. aureus RN4220 ugtP deletion mutant; OD600 growth, 16 h; some inactives read as strong as hits; growth inhibition, % (concentration not given with the values); actives 0.54% (n = 330,000); AID 1259309;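 active means z-score under -3 and OD600 up to 0.15 on both plates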;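 further: plate controls were untreated wells for no effect and antibiotic for full effect; wells of about 80 µL received 100 nL stock; the first replicate is given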
Bead autofluor – compound fluorescence in toxin protease inhibitor counterscreen | compound autofluorescence counterscreen, microsphere flow cytometry; stronger effect = higher value | fluorescence intensity (no concentration beside the values) | actives 3.1% (n = 360,000) | AID 624483;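 active means at least 3 SD above the mean of all compounds, about 16000 in these data; inconclusive means too few beads counted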;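 further: 100 nL of 1 mM stock went into each well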
BJeLR viability – BJeLR cell viability loss; AID 1554; actives 0.17% (n = 300,000); BJeLR (HRASV12) viability, CellTiter-Glo ATP luminescence, 48 h; reference of the scale not given here; inhibition, % (no concentration beside the values);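 active means replicate mean above 50%; inconclusive means above 50% but judged a plate artefact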;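 further: 50 nL library stock added to about 25 µL; numbers are from one replicate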
Mtb hypoxia rep growth – second read-out of Mtb hypoxia rep, no call of its own (marks repeat the call); growth inhibition, %; measured here: M. tuberculosis growth (absorbance);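 0% = vehicle and 100% = reference antibiotic; read after six days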
* = called active by the depositor; ? = inconclusive; nt = not tested or not shown. The order is random, and some 4.1% of all compounds hit somewhere here.

#	smiles	Mtb hypoxia rep	Mtb hypoxia rep growth	RN4220 kill	PrP 5UTR inh
1	COCCn1c(SCC(=O)N2CCC(C)CC2)nc2ccccc2c1=O	4	4	2.1	-15
2	CC(=O)NC(Cc1ccccc1F)C(=O)NC1CCN(C(=O)Nc2ccc(C)cc2)CC1 (configuration not stated)	nt	nt	nt	-31
3	NC(=O)CC(NC(=O)c1ccccc1)c1ccc(N2CCCCCCC2)c([N+](=O)[O-])c1 (configuration not stated)	7	6	1.3	-9
4	COc1ccc(/C(O)=C2\C(=O)C(=O)N(c3cc(C)on3)C2c2ccccc2OC)cc1 (configuration not stated)	nt	nt	2.4	-19
5	CN(Cc1ccccc1)C(=O)c1cccc(C(=O)N(C)Cc2ccccc2)c1	6	-6	5.4	-13
6	Cc1sc2nc(CSCC(=O)Nc3ccc(OC(F)F)cc3)[nH]c(=O)c2c1C	3	-3	4.6	-10
7	N/C(=N/[N+](=O)[O-])N1CCN(C(=O)c2ccc(Cl)cc2)CC1	nt	nt	nt	-28
8	CCCCCN1N=C(C)CC1=O	3	3	27	-26
9	O=[N+]([O-])c1cccnc1Oc1ccc(F)cc1F	11	5	3.4	-35
10	O=C(Nc1ccnn1C1CCN(C(=O)c2cccc(Cl)c2)CC1)C1CCOC1 (configuration not stated)	11	2	1.4	-10

#	Sa ugtP lethal	Bead autofluor	BJeLR viability
1	5	7929	-14
2	nt	3885	5
3	-18	4230	-4
4	2	3641	1
5	4	4889	-4
6	6	3434	-9
7	nt	4592	-6
8	-1	5224	2
9	14	6418	4
10	7	6359	4

Remaining list, next part.
#	smiles	Mtb hypoxia rep	Mtb hypoxia rep growth	RN4220 kill	PrP 5UTR inh
11	O=C(c1c[nH]c2ccccc12)C(F)(F)F	0	3	0.2	-14
12	Cc1cc(C)nc(SCc2nnc(SCC(=O)Nc3nc(-c4ccccc4)cs3)n2-c2ccccc2)n1	nt	nt	3.3	-16
13	O=C(CN1CCN(Cc2ccccc2Cl)C1=O)NCc1ccccn1	3	8	3.2	-2
14	COc1ccc(OC)c(NC(=O)CN2C(=O)NC3(CCOc4ccccc43)C2=O)c1 (configuration not stated)	nt	nt	-0.7	-13
15	CCCN(Cc1nnc(-c2ccccc2Cl)o1)C(=O)c1cccc(S(=O)(=O)N2CCOCC2)c1	0	7	2.7	2
16	CC(=O)N/N=C(\C)c1cccc(C(F)(F)F)c1	nt	nt	nt	-1
17	COc1ccc(C=NNC(=O)c2cccnc2)cc1CN1CCOCC1	15	11	2.0	nt
18	CCC(=O)N(Cc1cc(=O)[nH]c2ccccc12)c1ccccc1C	17	3	6.9	-9
19	CCOCCOC(=O)C1=C(C)NC(=O)NC1c1cc2c(cc1Br)OCO2 (configuration not stated)	17	5	4.8	-20
20	COc1cccc(CNS(=O)(=O)c2c(C(=O)N3CCCCC3)c(C)n(C)c2C)c1	12	10	2.0	5

#	Sa ugtP lethal	Bead autofluor	BJeLR viability
11	-8	3576	1
12	7	2844	-4
13	1	5328	3
14	-3	4362	2
15	2	4078	-6
16	nt	4427	-17
17	2	nt	nt
18	-1	3380	11
19	8	3945	0
20	-1	6077	-6

The closing three records of the section before open the next one.
#	smiles	Mtb hypoxia rep	Mtb hypoxia rep growth	RN4220 kill	PrP 5UTR inh
18	CCC(=O)N(Cc1cc(=O)[nH]c2ccccc12)c1ccccc1C	17	3	6.9	-9
19	CCOCCOC(=O)C1=C(C)NC(=O)NC1c1cc2c(cc1Br)OCO2 (configuration not stated)	17	5	4.8	-20
20	COc1cccc(CNS(=O)(=O)c2c(C(=O)N3CCCCC3)c(C)n(C)c2C)c1	12	10	2.0	5
21	O=c1ccc(Cl)nn1-c1ccccc1	-2	3	2.4	-12
22	COc1cccc(COC(=O)Nc2ccccc2F)c1	7	10	4.5	-122
23	COc1cccc(NC(=O)CSc2nnc(Cc3cccs3)n2-c2ccc(C)cc2)c1	4	4	7.6	-14
24	Clc1ccc(CNc2ncnc3[nH]ncc23)c(Cl)c1	2	2	9.4	8
25	CC(C)CC(NC(=O)c1[nH]cnc1C(=O)Nc1ccc(Cl)cc1)C(=O)OC(C)(C)C (configuration not stated)	16	8	-4.0	nt
26	COc1ccc(C(C)NC(=O)CC23CC4CC(CC(C4)C2)C3)cc1 (configuration not stated)	6	7	4.0	-4
27	Cc1occc1-c1nnc(SCC(=O)c2c[nH]c3ccccc23)n1C	nt	nt	4.3	-17
28	CCN1CCN(C(=O)C2CCCN(S(=O)(=O)c3cccc4nsnc34)C2)CC1 (configuration not stated)	5	2	0.2	-7
29	CN(C)CCn1c(N)nc2ccccc21	2	5	14	-12
30	Cc1c(Cc2ccccc2)c(=O)[nH]c(=O)n1C	11	8	1.0	-7

#	Sa ugtP lethal	Bead autofluor	BJeLR viability
18	-1	3380	11
19	8	3945	0
20	-1	6077	-6
21	3	4237	11
22	0	5406	9
23	6	14630	1
24	10	2863	nt
25	-6	nt	nt
26	6	3097	8
27	1	4371	nt
28	2	4408	10
29	4	3132	4
30	2	3629	nt

Single records, as listed above. Order of screens: Mtb hypoxia rep | Mtb hypoxia rep growth | RN4220 kill | PrP 5UTR inh | Sa ugtP lethal | Bead autofluor | BJeLR viability
Listed for CC(C)CC(NC(=O)c1[nH]cnc1C(=O)Nc1ccc(Cl)cc1)C(=O)OC(C)(C)C (configuration not stated) → 16 | 8 | -4.0 | nt | -6 | nt | nt
Listed for COc1cccc(COC(=O)Nc2ccccc2F)c1 → 7 | 10 | 4.5 | -122 | 0 | 5406 | 9

(next part)
#	smiles	Mtb hypoxia rep	Mtb hypoxia rep growth	RN4220 kill	PrP 5UTR inh
31	O=C(Nc1ccc(S(=O)(=O)NC2CCCCC2)cc1)c1ccco1	0	2	1.1	-5
32	O=C(Nc1ccc(CN2CCOCC2)cc1)c1ccccc1F	1	-2	3.8	-29
33	COc1ccc(C(=O)NN=Cc2ccc(SC)cc2)cc1	6	8	0.6	nt
34	CCC(O)C1CCN(C(=O)c2cc(COc3ccc(F)cc3F)on2)CC1 (configuration not stated)	2	9	0.9	-18
35	COc1ccc(/C=N/NC(=O)c2ccc(NC(=O)c3cccc([N+](=O)[O-])c3)cc2)c(OC)c1	nt	nt	nt	-21
36	CC(=O)NS(=O)(=O)c1cccnc1Nc1ccc(Cl)cc1	nt	nt	2.1	2
37	O=C1C2C3C=CC(C3)C2C(=O)N1c1n[nH]c(-c2cccnc2)n1 (configuration not stated)	8	5	2.1	-8
38	COc1ccc(-c2nc3n(n2)C(=O)CC(c2ccco2)S3)cc1 (configuration not stated)	2	3	1.6	-23
39	O=C(CSc1ncnc2scc(-c3ccccc3)c12)Nc1ccc(C(=O)O)cc1	4	12	32	-34
40	COc1ccccc1NC(=O)CSc1nnnn1-c1ccc(C)cc1	16	7	8.7	-5

#	Sa ugtP lethal	Bead autofluor	BJeLR viability
31	-9	10796	2
32	11	?	-11
33	-8	nt	nt
34	-1	5058	-8
35	nt	4476	-4
36	4	2234	4
37	1	11494	-6
38	8	9948	16
39	15	4193	5
40	8	4578	-12

More records:
#	smiles	Mtb hypoxia rep	Mtb hypoxia rep growth	RN4220 kill	PrP 5UTR inh
41	C[C@@]1([C@@H](NC(=O)c2cccs2)c2ccc(-c3ccccc3)cc2)C[C@H]1C1CCCCC1	nt	nt	nt	-16
42	COc1cc(/C=N/n2nnnc2N)cc(OC)c1OC	nt	nt	nt	-14
43	COc1ccccc1N1C(=O)CC(=O)NC1=O	1	-3	2.3	-8
44	CCN(CC(=O)NC1CCS(=O)(=O)C1)C(=O)/C=C/c1cccs1 (configuration not stated)	0	10	-0.6	-27
45	O=C(O)CCC(=O)Nc1ccc(N2CCOCC2)cc1	nt	nt	-1.2	-6
46	COc1cccc(CN2C[C@]34C=CC(CC3S2(=O)=O)O4)c1 (some centres not stated)	19	8	4.8	nt
47	O=c1ccc(Oc2nc(N3CCCCC3)nc(N3CCCCC3)n2)n[nH]1	5	11	0.3	-6
48	COc1ccc(C(=O)O/N=C2\C(=O)N(C)c3ccccc32)cc1	nt	nt	nt	-12
49	CCN(C(=O)COC(=O)/C=C/c1cccc([N+](=O)[O-])c1)c1ccccc1	6	8	-1.9	-20
50	Cc1ccc(CNC(=O)c2cc(-c3ccccc3)nn2CC2CC(c3cccnc3)=NO2)cc1 (configuration not stated)	2	-2	4.4	-17

#	Sa ugtP lethal	Bead autofluor	BJeLR viability
41	nt	2927	13
42	nt	4578	-11
43	9	5940	0
44	1	4621	3
45	10	2466	5
46	5	nt	nt
47	1	3340	-12
48	nt	3440	-14
49	0	4971	-14
50	1	4273	-4

The results go on.
#	smiles	Mtb hypoxia rep	Mtb hypoxia rep growth	RN4220 kill	PrP 5UTR inh
51	Cc1ccc2c(c1)[C@@H](O)C[C@@H](C)N2N=O	8	3	3.2	-18
52	CCc1ccc(-c2cc3c(=O)n(CC(=O)N4CCCCCC4)nc(C)n3n2)cc1	22	8	4.1	-12
53	C=CC[n+]1c(C)csc1Nc1ccc(C(=O)O)cc1	11	5	3.7	-10
54	CCC(C)C(C(=O)N1CCNCC1)n1cc(CCCCN)nn1 (configuration not stated)	6	2	5.2	nt
55	COc1ccc(OC)c(S(=O)(=O)Nc2ccc(F)cc2)c1	-1	-1	6.3	-16
56	COC(=O)c1cnn(-c2ccc(Cl)cc2)c1C=NNC(N)=S	17	7	5.1	nt
57	CC(C)NC(=O)c1onc(CSc2nc3ccccc3[nH]2)c1C(=O)NC(C)C	2	-6	-2.6	-2
58	CCc1nnc(NC(=O)c2ncc(Cl)c(Cl)c2Cl)s1	0	-5	6.7	-13
59	O=S(=O)(Nc1ncccn1)c1ccc(Nc2ncnc3ccccc23)cc1	nt	nt	5.8	-15
60	CC(C)Oc1ccc(C(=O)NCc2ccco2)cc1	nt	nt	1.5	-33

#	Sa ugtP lethal	Bead autofluor	BJeLR viability
51	-2	1988	-13
52	5	5516	5
53	4	2411	2
54	-2	nt	nt
55	0	5392	-3
56	-2	nt	nt
57	-1	4382	-2
58	10	4352	-3
59	5	13196	-1
60	6	2436	4

The list continues.
#	smiles	Mtb hypoxia rep	Mtb hypoxia rep growth	RN4220 kill	PrP 5UTR inh
61	Brc1ccc(-c2c(-c3ccsc3)sc3ccccc23)cn1	4	2	-11	-11
62	O=C(NCC1CCCO1)c1ccc(N2CCCCC2)c([N+](=O)[O-])c1 (configuration not stated)	1	3	2.8	-24
63	CCOC(=O)N1CCN(c2c(NCCOC)c(=O)c2=O)CC1	11	5	3.8	-48
64	O=C(Nc1cccc(Br)c1)c1ccc2c(c1)SC1=NS(=O)(=O)CCN12	11	4	-0.9	-12
65	Cc1ccc(C(=O)N[C@H](C(=O)NC2CCCCC2)C(C)C)cc1	2	10	-1.6	-26
66	CN1CCN(C(=O)C(=O)c2cn(CC(=O)N3CCCC3)c3ccccc23)CC1	-1	3	0.9	3
67	Cc1nc2cncc(Br)c2n1C	nt	nt	-0.6	-9
68	CC(=O)Nc1ccc(NC(=O)COC(=O)CCNS(=O)(=O)c2c(Cl)cccc2Cl)cc1	-14	-9	-0.4	-8
69	O=C(O)C1CC2(Cl)C(Cl)=C(Cl)C1(Cl)C2(Cl)Cl (configuration not stated)	25	6	8.6	-7

#	Sa ugtP lethal	Bead autofluor	BJeLR viability
61	12	4204	nt
62	9	5258	1
63	10	6182	-6
64	4	6252	nt
65	0	8005	nt
66	0	5080	10
67	1	4755	-3
68	1	5785	nt
69	4	3261	nt
